YjeE inh – displaces an ADP probe from E. coli YjeE (TsaE); P0AF67; purified YjeE, fluorescence polarisation of a bound ADP probe; Potency, µM; 71,000 compounds, 0.05% hits; AID 605; active = well fitted falling curve; inconclusive = weaker or top-dose-only fall, or a rising curve; inactive = flat or poorly fitted curve;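 note: top concentration of the series not given in the record; excess ADP was the control for the full effect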
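Purified YjeE (10 uM) with BODIPY Texas Red-labeled ADP probe (2 uM); compounds pin-transferred, 15 min at room temperature. Binding inhibition read as decreased fluorescence polarization; ADP titration as control.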
Bst PK mod – pyruvate kinase (B. stearothermophilus) modulation | AID 361 | partly purified Bacillus stearothermophilus pyruvate kinase, luminescence ATP production; ribose 5-phosphate activator present at AC10 | Potency, µM | 51,000 compounds, 1.2% hits; in the data active means potency below about 11 µM; inconclusive means mostly about 12 µM to 25 µM; inactive means weaker than that;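 the screen sought inhibitors and activators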;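 note: potency is the fitted concentration of half-maximal effect; scaled between full activation by ribose 5 phosphate and full inhibition by luteolin; about four in five hits inhibit and the cells do not say which; series up to 57 µM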
* marks the source's active call; other numbers are inactive results; i = inactive; ? = inconclusive; · = no result given. Not all compounds are listed, so the mix of outcomes need not match the whole.

Below each SMILES: YjeE inh, Bst PK mod
CCSc1nnc(NC(=O)C(C(F)(F)F)C(F)(F)F)s1
    ·, >26
c1ccc2c(NCC3CCCO3)nc(-c3ccncc3)nc2c1 (configuration not stated)
    ·, i
Cc1noc(C)c1CSc1nc2ccccc2nc1NS(=O)(=O)c1ccc(Cl)cc1
    i, >57
CCOC(=O)c1cccc(NC(=O)CN(c2ccc(C)cc2)S(=O)(=O)c2c(C)n[nH]c2C)c1
    i, >57
CC(=O)N1C(=O)N(C)C2C1N(C)C(=O)N2C(C)=O (configuration not stated)
    i, >57
O=C(NC1CCN(Cc2ccccc2)CC1)C1CCCN(S(=O)(=O)c2cccc3nonc23)C1 (configuration not stated)
    i, >57
CCCC(=O)Nc1c(C(=O)OCC)[nH]c2ccccc12
    i, ·
C[C@@H]1CNCCN1S(=O)(=O)c1cccc2cnccc12
    i, ·
CNc1nc(-c2cccc(C#N)c2)nc2ccccc12
    i, ·
O=S(=O)(c1ccccc1)N1CCC2(CCN(C(c3ccccc3)c3ccccc3)CC2)CC1
    i, ·
NC(=O)c1cc(S(=O)(=O)Nc2cccc(F)c2)co1
    i, ·
Cc1cc(NC(=O)c2ccco2)ncc1NC(=O)CCc1ccccc1
    i, >57
CCN(CC)CCCC(C)n1c(-c2ccccc2)nc2c(NCCOC)nc(C)nc21 (configuration not stated)
    i, ·
COc1ccc(-n2c(Cc3cccn3C)nnc2SCC(=O)Nc2ccccc2F)cc1
    i, ·
CC(=O)C(Sc1nn(C)c(=S)s1)C(=O)Nc1ccccc1 (configuration not stated)
    i, >57
O=C(O)CN1CCN(Cc2ccc(F)cc2Cl)C1=O
    i, ·
CC(=O)Nc1coc2ccc(Br)cc12
    i, ?
COc1ccccc1-c1noc(CCC(=O)Nc2cccc(C)c2)n1
    i, >57
O=C(COC(=O)C1CC(=O)N(c2ccc3c(c2)OCCO3)C1)NC1CCCc2ccccc21 (configuration not stated)
    i, >57
CCn1c(=O)c(C(=O)NCc2ccc(OC)cc2)c(O)c2ccccc21
    i, >57

A draw from above in order of molar mass, low to high.
Below each SMILES: YjeE inh, Bst PK mod
NC(=O)c1cc(S(=O)(=O)Nc2cccc(F)c2)co1
    i, ·
O=C(O)CN1CCN(Cc2ccc(F)cc2Cl)C1=O
    i, ·
O=C(COC(=O)C1CC(=O)N(c2ccc3c(c2)OCCO3)C1)NC1CCCc2ccccc21 (configuration not stated)
    i, >57

(more compounds)
Below each SMILES: YjeE inh, Bst PK mod
CCOC(=O)c1sc(N)c(C#N)c1CSc1nnc(C2CCCCC2)n1N
    i, >57
Cc1ccc(C)c(NC(=O)CSc2nnc(CSc3nc(C)cc(C)n3)n2Cc2ccco2)c1
    i, >57
O=C(NCc1ccco1)c1ccc2nc3sc4c(c3c(=O)n2c1)CCCC4
    i, i
Cn1c(=O)[nH]c(=O)c2c1nc(Br)n2CCCO
    i, >57
Cc1cc(NC(=O)c2ccc3c(c2)OCCO3)no1
    i, 3*
Cc1sc2nc(CN(C(=O)c3cccs3)C3CCCC3)[nH]c(=O)c2c1C
    i, >57
CC1(C)CC(=O)C2=C(C1)N(c1ccc(F)cc1)C(=O)CC2c1cccnc1 (configuration not stated)
    i, ·
COc1cc2c(cc1OC)C(C)N(C(=O)c1cc3ccccc3o1)CC2 (configuration not stated)
    i, ·
CNNCc1ccc(C(=O)NC(C)C)cc1
    i, ·
O=C(CSc1nnc(CSc2nc3ccccc3s2)o1)NC1CCCCC1
    i, ·
CCN(CC)CCNC(=O)Cn1cnc2sc(C)c(S(=O)(=O)N3CCOCC3)c2c1=O
    i, >57
CCOC(=O)N1CCN(c2c(N3CCC(N4CCCCC4)CC3)c(=O)c2=O)CC1
    i, ·
COC(=O)c1ccc(C(NC(=O)OCc2ccccc2)/C(=C/[C@@H](C)C(=O)NCc2ccccc2)c2cccnc2)cc1 (some centres not stated)
    i, ·
CC1=C(c2ccccc2)[N+](=O)C2(CCCC2)N1[O-]
    i, ·
O=C(NCc1ccc(F)cc1)c1cc2ccccn2n1
    i, ·
O=c1c(-c2ccccc2)nc2cncnc2n1Cc1ccc(F)cc1
    i, ·
O=C(Nc1nc(-c2cccs2)cs1)c1ccc(Cl)s1
    i, ·
CN(Cc1nc(-c2cccnc2)no1)S(=O)(=O)c1ccc2ccccc2c1
    i, >57
Cc1nn(C(C)(C)C)c(OC(=O)C2CCCC2)c1S(=O)(=O)c1ccccc1
    i, >57
CC(C)Cn1c(N)c(C(=O)COC(=O)C2CCCCC2)c(=O)n(C)c1=O
    i, >57
COc1ccc(-c2nnc3n2N=C(c2cccc(Br)c2)CS3)cc1OC
    i, ·
CCN(CC)CCCN1C(=O)C(=O)/C(=C(/O)c2ccc3c(c2)CC(C)O3)C1c1ccncc1 (configuration not stated)
    ·, >26
Cc1cc(C)c(S(N)(=O)=O)c(C)c1-n1cnnn1
    i, >57
CCOc1ccc(C(=O)N(Cc2ccc(N(C)C)cc2)C2CCS(=O)(=O)C2)cc1 (configuration not stated)
    i, >57
O=S(=O)(c1ccc2ccccc2c1)N1CCN(S(=O)(=O)N2CCOCC2)CC1
    i, >57
COC(=O)c1ccccc1NC(=O)c1cnc2sccn2c1=O
    i, >57
Cc1cc(C(=O)CSc2nnc(-c3ccco3)o2)c(C)n1CC1COc2ccccc2O1 (configuration not stated)
    i, >57
Cc1cc(OCC(=O)Nn2cnnc2)ccc1Br
    ·, >26
N#CC1=C(N)SC(N)=C(C#N)C1c1ccnc2ccccc12
    i, >57
O=C(Nc1ccccc1OC(F)F)c1ccc(Br)o1
    i, >57
O=c1c2ccccc2[nH]c(=S)n1Cc1cccnc1
    i, ·
CCNc1sc(C(=O)c2cccs2)c(N)c1-c1nc2ccccc2s1
    i, >57
COc1cccc(NC(=O)CCN2CCN(C)CC2)c1
    i, >57
CCCCCCN(C(=O)CCCCCN1C(=O)NC(c2ccc(-c3ccccc3)cc2)C(C(=O)OCc2ccccc2)=C1C)C(C(=O)NCCCC)c1ccc(O)cc1 (configuration not stated)
    i, ·
COc1ccccc1CN1CCC2(CC1)CCN(C(=O)c1cccc(F)c1)CC2
    i, ·
O=C(NC(O)C(=O)c1ccccc1)c1cccs1 (configuration not stated)
    i, ·
CC(=O)Nc1sc2c(c1C(c1cccs1)N1CCOCC1)CCCC2 (configuration not stated)
    i, >57
CCOC(=O)C1C(=O)N(C(=O)c2ccc(OC)cc2)CC1c1ccccc1 (configuration not stated)
    i, ·
c1csc(-c2ncc3ccccn23)c1
    i, ·
O=C(CSCc1nc2ccccc2[nH]1)N1CCN(c2ccc(F)cc2)CC1
    i, >57

Laid out differently: entries from further up
> O=C(NCc1ccc(F)cc1)c1cc2ccccn2n1
  YjeE inh = i; Bst PK mod = ·
> O=c1c(-c2ccccc2)nc2cncnc2n1Cc1ccc(F)cc1
  YjeE inh = i; Bst PK mod = ·
> O=C(Nc1nc(-c2cccs2)cs1)c1ccc(Cl)s1
  YjeE inh = i; Bst PK mod = ·
> CN(Cc1nc(-c2cccnc2)no1)S(=O)(=O)c1ccc2ccccc2c1
  YjeE inh = i; Bst PK mod = >57

(more compounds)
Below each SMILES: YjeE inh, Bst PK mod
Cc1ccc(CNC(=O)c2ccccc2NS(C)(=O)=O)cc1
    i, >57
N[C@H](CCC(=O)NCS(=O)(=O)O)C(=O)O
    i, ·
CCc1cc2c(c(CC)n1)CCC(=O)N2Cc1ccc(-c2ccccc2-c2nn[nH]n2)cc1
    i, ·
COCCNC(=O)CN(C(=O)CCC(=O)Nc1nccs1)c1ccccc1OC
    i, >57
CC(NC(=O)c1cccs1)C(=O)NC1=NCCS1 (configuration not stated)
    i, >57
COc1ccccc1CN1CCC2(CC1)CCN(C(=O)c1c(C)noc1C)CC2
    i, ·
CCOC(=O)CC1Sc2ccccc2NC1=O (configuration not stated)
    i, >57
COc1ccc(C2C(C(=O)O)CC(=O)N2C2CCCCC2)cc1 (configuration not stated)
    i, >57
COCc1c(C)cc(C)c(/C=N/O)c1C
    i, >57
COCCCn1c(-c2ccco2)nc2ccccc2c1=O
    i, ·
CCOC(=O)N1CCN(S(=O)(=O)c2ccc(C)c(C)c2)CC1
    i, ?
O=C(CN1CCOCC1)Nc1ccc(OCc2ccccc2)cc1
    i, >57
O=C(Nc1ccc(-c2cn3ccccc3n2)cc1)c1cc(Br)ccc1O
    i, ·
O=P(O)(O)CP(=O)(O)O
    i, >57
COC(=O)c1ccc(CSc2nnc3c(Cl)cc(Cl)cn23)o1
    i, >57
Nc1nc2c(c(=O)[nH]1)CN(CCCN1CCOCC1)CN2
    i, ·
O=C(c1noc2c1CCc1ccccc1-2)N1CCOCC1
    i, >57
O=C(CSc1nnc(-c2ccc(Br)cc2)o1)Nc1cccc2ccccc12
    i, >57
CC(=O)N(Cc1cccnc1)Cc1cc2ccccc2[nH]c1=O
    i, >57
CN1CCN(Cc2nc3c(c(=O)[nH]c(=O)n3C)n2Cc2c(F)cccc2Cl)CC1
    i, ·
CCCC(=O)Nc1nc2ccc(S(N)(=O)=O)cc2s1
    i, ·
Cc1c(O)ccc(C(=O)CN2C(=O)c3ccccc3C2=O)c1O
    i, >57
COc1ccc(-n2c(=O)c3c4c(sc3n3cnnc23)CC(C)CC4)cc1 (configuration not stated)
    i, ·
CC(C)N1CC(C(=O)Nc2nc3ccccc3s2)CC1=O (configuration not stated)
    i, >57
Cc1ccc(-c2nc3ccccc3c(=O)n2CCCn2ccnc2)cc1
    i, >57
Cn1ncc(N=Cc2ccccc2)c1C(N)=O
    ·, >26
Cc1ccc(NC(=O)CS(=O)CC(=O)NCC2CCCO2)cc1 (configuration not stated)
    i, >57
N[C@@H](C(=O)O)[C@H](CC(=O)O)c1ccc(Cl)cc1
    i, ·
CC(=O)N1C(=O)N(C(C)=O)C2C1N(C(C)=O)C(=O)N2C(C)=O (configuration not stated)
    i, >57
COc1ccc(S(=O)(=O)N2Cc3ccccc3CC2C(=O)N2CCOCC2)cc1OC (configuration not stated)
    i, >57
Cc1cccc(OCc2nnc3n2CCCCC3)c1
    i, >57
O=C(Nc1c(F)cc(F)cc1Br)c1cc(-c2ccco2)on1
    i, >57
C=CCNS(=O)(=O)c1ccc(OCC(=O)OC)cc1
    i, >57
O=C(NCc1ccco1)c1cc(-c2ccc3c(c2)OCO3)on1
    i, >57
Cc1ccc(C(=O)CC2(O)C(=O)N(C)c3ccccc32)o1 (configuration not stated)
    i, ·
O=C(C1CCC1)N1CCc2cc(S(=O)(=O)NCC3COc4ccccc4O3)ccc21 (configuration not stated)
    i, >57
NS(=O)(=O)c1ccc(NC=C2C(=O)OC3(CCCCC3)OC2=O)cc1
    i, ·
COc1ccc(C)cc1-n1c(N)c(C#N)c(C#N)c1-c1ccc(OC)c(OC)c1OC
    i, >57
C#CCOc1nc(OCC#C)nc(OCC#C)n1
    i, ·
O=C(O)C1CC=CCC1C(=O)N1CCN(c2nc(-c3ccccc3)c3ccccc3n2)CC1 (configuration not stated)
    ·, >11

Further structures follow.
| mol | YjeE inh | Bst PK mod |
| --- | --- | --- |
| CC(=O)N1CCN(C)CC1 | i | · |
| Cc1noc(C)c1S(=O)(=O)N1CCC(C(=O)Nc2ccccn2)CC1 | i | >57 |
| CCOCCCn1c(=S)[nH]c2cc(C(=O)N3CCC(C(N)=O)CC3)ccc2c1=O | i | >57 |
| CCN(c1cccc(C(F)(F)F)c1)S(=O)(=O)c1ccc2c(c1)CCN2C(C)=O | i | >57 |
| COCCN(C(=O)Nc1ccc(OC)cc1OC)C1CCN(C(C)=O)CC1 | i | >57 |
| COc1cccc(-n2c(SCC(=O)OC(C)C)nnc2-c2cccnc2)c1 | i | >57 |
| O=C(O)CCC(=O)N1CCC[C@H]1C(=O)O | i | · |
| CC(C)CC(=O)Nc1c2c(nn1-c1ccc(F)cc1)CSC2 | i | · |
| O=C(O)CCN1C(=O)c2ccccc2C1=O | i | >57 |
| Cn1c(Cl)nc2c1c(=O)n(Cc1cccc(Br)c1)c(=O)n2C | · | >11 |
| CCc1ccc(-c2nc(CN3CCC(C(=O)NCCc4ccc(OC)c(OC)c4)CC3)c(C)o2)cc1 | i | >57 |
| CCCN1CCC(NC(=O)Nc2ccc(OC)c(OC)c2)CC1 | i | >57 |
| COC(=O)c1cc(OC)c(OC)cc1-n1cnc2cc(OC)c(OC)cc2c1=O | i | · |
| Cc1nc(S(=O)(=O)NC2CCCCC2)c(C#N)c(C)c1Cl | i | · |
| Cc1cc(=O)oc(C)c1C(=O)NCc1ccccn1 | i | >57 |
| C/C(=N/O)c1ccc2cc(Br)c3ccccc3c2c1 | i | · |
| Cn1ccnc1SCC(=O)NC12CC3CC(CC(C3)C1)C2 | i | >57 |
| COc1ccc(-n2c(=O)c(C)nc3cnc(Oc4ccccc4)nc32)cc1 | i | · |
| OC1(C(O)(c2ccc(-c3ccccc3)cc2)c2ccc(-c3ccccc3)cc2)CCCCC1 | i | · |
| CCn1c(=O)cc(SCC(=O)N2CCCCC2)c2ccccc21 | i | >57 |
| N#Cc1nc(-c2ccco2)oc1NCc1cccnc1 | i | >57 |
| COc1ccc(C(=O)n2ccc(C)n2)cc1Br | i | >57 |
| COC(=O)c1ccc(COC(=O)C23CC4CC(CC(O)(C4)C2)C3)o1 | i | >57 |
| O=S(=O)(Nc1cc(Cl)ccc1N1CCCCC1)c1cccs1 | i | >57 |
| COc1ccc(C)cc1NC(=O)CSc1nnc(COc2ccc(Cl)cc2)n1Cc1ccco1 | i | >57 |
| CCCCCCc1cc2cc(C(=O)NC)c(=N)oc2cc1O | · | >26 |
| Cc1cc(C)c(NC(=O)Cn2c(=O)n(Cc3ccco3)c(=O)c3ccccc32)c(C)c1 | i | >57 |
| COc1ccc(-c2nnn(CC(=O)N(CC(=O)NC3CCCC3)Cc3cccs3)n2)cc1OC | i | >57 |
| COc1ccc2c(c1)CCc1c(C(=O)Nc3cc(C)n(Cc4ccc(Cl)cc4)n3)noc1-2 | i | >57 |
